PKD1 inh = inhibitors of human PKD1 kinase, biochemical, fluorescence polarization. PKD1 kinase fluorescence polarization assay. inhibition, %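 (about 10 µM by stock and volumes)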. 200,000 compounds, 0.056% hits. AID 797, 2007;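 active means inhibition of 50% or more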;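 further: controls were vehicle for no effect and a reference inhibitor for full effect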
Target sequence (Q15139 whole entry, looked up): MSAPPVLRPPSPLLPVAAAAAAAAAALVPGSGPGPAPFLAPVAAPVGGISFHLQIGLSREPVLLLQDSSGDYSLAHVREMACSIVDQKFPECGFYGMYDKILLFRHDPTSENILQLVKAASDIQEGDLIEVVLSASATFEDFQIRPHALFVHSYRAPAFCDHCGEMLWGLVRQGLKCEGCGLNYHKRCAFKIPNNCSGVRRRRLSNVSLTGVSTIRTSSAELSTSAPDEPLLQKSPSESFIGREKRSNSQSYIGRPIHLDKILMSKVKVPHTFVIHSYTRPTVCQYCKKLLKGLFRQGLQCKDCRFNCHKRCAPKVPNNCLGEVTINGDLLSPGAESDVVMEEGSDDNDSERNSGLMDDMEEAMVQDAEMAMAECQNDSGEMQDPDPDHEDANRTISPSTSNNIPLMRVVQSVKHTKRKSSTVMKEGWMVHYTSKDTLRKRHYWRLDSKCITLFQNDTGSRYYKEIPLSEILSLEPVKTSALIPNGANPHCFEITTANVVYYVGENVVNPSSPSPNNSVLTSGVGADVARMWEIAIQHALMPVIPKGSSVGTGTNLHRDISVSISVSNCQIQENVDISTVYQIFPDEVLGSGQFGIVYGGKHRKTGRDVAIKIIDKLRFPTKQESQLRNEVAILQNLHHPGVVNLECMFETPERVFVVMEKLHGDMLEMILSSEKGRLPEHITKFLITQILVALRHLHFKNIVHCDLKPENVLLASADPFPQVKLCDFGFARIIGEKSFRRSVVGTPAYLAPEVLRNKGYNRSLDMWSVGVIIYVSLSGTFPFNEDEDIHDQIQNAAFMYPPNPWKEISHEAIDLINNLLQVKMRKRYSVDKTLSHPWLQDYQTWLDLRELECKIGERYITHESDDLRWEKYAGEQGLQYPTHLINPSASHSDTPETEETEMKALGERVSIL
INS promoter inh = inhibitors of insulin promoter-driven GFP, primary screen, imaging, TRM-6 cells (human fetal islet line), eGFP reporter, cell count. reporter expression induced with tamoxifen. AID 1273, 2008. 130,000 compounds, 0.9% hits. inhibition, % at 2 µM;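 active means inhibition above the mean plus 3 SD, with well images judged a real hit on visual review, cut at about 60% in these data, passing the limit was not always enough; inconclusive means inhibition over the cutoff but images rejected on review; inactive means inhibition not above the cutoff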
GALR2 agonist = GALR2 receptor agonists, primary screen, cell-based | Galanin receptor type 2 (Homo sapiens), O43603 | GALR2-expressing cells, agonist activation read-out | activation, %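 (tested at 5 µM)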 | 140,000 compounds, 0.48% hits;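 active means above mean plus 3 SD of all compounds, about 5% in these data, not always enough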;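 further: 0% = vehicle buffer wells and 100% = reference agonist at full effect; tested in CHO reporter cells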
RGS16-Gao = modulators of RGS16 binding to Galphao, primary screen, biochemical, human proteins, multiplexed bead flow cytometry; Regulator of G-protein signaling 16 (Homo sapiens) + Guanine nucleotide-binding protein …; bead-based flow cytometry RGS16-Galphao binding, fluorescence; actives lie on both sides; binding response (% of control), % at 10 µM; 220,000 compounds, 0.38% hits; AID 1441, 2008;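 active means below 25% or above 175%, edge rows of some plates excepted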;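 further: Galphao activated by GDP with aluminum fluoride before binding; 100% = wells without compound and 0% = beads without RGS; some results beyond the cut were filed as inactive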
HSV augment = enhancers of HSV replication in host cells, fold increase, host cell viability | AID 1956, 2009 | 220,000 compounds, 0.005% hits | maximum fold increase | HSV replication augmentation in cells;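 active means peak rise of 1.5-fold or more in the series; inconclusive means self-fluorescent or not available for retest; tested in PC3 cells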;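 further: first round at 10 µM; read as green reporter fluorescence; hits show the peak of a series up to 25 µM; 1 = signal of infected wells without compound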
INS promoter inh cell count = also measured in INS promoter inh; calls as there; normalized cell count, %; measured here: cell count, toxicity; reference of the scale not given here;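 cells exposed to compound for 48 h; stained nuclei by imaging scaled within each plate; lower means fewer cells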
HSV augment primary fold = second read-out of HSV augment, no call of its own (marks repeat the call); fold increase; compound at 10 µM; measured here: primary screen fold increase 10 uM; tested in PC3 cells;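 GFP signal in the first replicate; 1 = infected wells without compound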
Starred values were filed as active, the others as inactive; i = inactive; ? = inconclusive; · = not tested or not shown.

SMILES	PKD1 inh	INS promoter inh	INS promoter inh cell count	GALR2 agonist	RGS16-Gao	HSV augment	HSV augment primary fold
Cc1ccc(SCCNC(=O)c2ccc(C)c(S(=O)(=O)Nc3ccccc3C)c2)cc1	-3	·	·	-2.7	99	i	0.79
COC(=O)C1=C(C)NC(C)=C(C(=O)OC)C1C(=O)OCC(=O)Nc1ccc(C(C)=O)cc1	-1	6	89	·	106	i	0.94
Cc1nc(N2CCCCC2)c2c(C)c(C(=O)Nc3cccc(C(F)(F)F)c3)sc2n1	3	33	66	·	93	i	0.89
Cn1c(-c2ccccc2)c(/C=N/NC(=O)c2cccnc2)c2ccccc21	1	43	59	·	103	i	0.91
O=C(Nc1ccc2c(c1)OCO2)c1ccc(Cl)s1	2	13	143	-2.0	98	i	0.72
Cc1ccc(Cn2c(=N)n(CC(O)COc3ccccc3)c3ccccc32)cc1 (stereo unspecified)	10	-58	109	1.6	107	i	0.71
COc1cccc(/C=N/NC(=O)CSc2ccccc2C)c1O	-6	-3	114	-1.4	122	i	0.62
O=C(COC(=O)c1ccco1)NCc1cccs1	4	-5	79	-2.7	93	i	1
COc1ccccc1C(=O)Nc1ccc(N2CCN(S(C)(=O)=O)CC2)cc1	-4	-37	220	0.2	103	i	0.96
NCC(=O)Nc1ccc(Br)cc1	2	8	105	·	95	i	0.98
CC1CCCN(CCCNC(=O)CCn2nc(-c3ccccc3)ccc2=O)C1 (stereo unspecified)	-6	17	76	-1.5	99	·	·
CCn1cc(C(=O)O)c(=O)c2cc(F)c(N3CCN(C(=O)Nc4ccccc4)CC3)cc21	14	-53	136	1.5	107	i	0.76
O=C(/C=C/c1ccc(F)cc1)NCCNC(=O)/C=C/c1ccc(F)cc1	8	·	·	·	101	i	1
O=C(Nc1ccc2oc(=O)ccc2c1)c1cc([N+](=O)[O-])ccc1N1CCOCC1	-3	·	·	·	102	i	0.99
Cc1ccc(Cl)cc1OCC(=O)NCCOC(=O)Nc1sc(=S)n(C)c1C	-3	4	151	-1.3	101	i	0.87
Cc1ccc(CN2CCNC(=O)C2CC(=O)NCC(F)(F)F)o1 (stereo unspecified)	9	·	·	·	54	i	0.98
Nc1nc(-c2cccnc2)nc2sc3c(c12)CCCC3	-2	·	·	·	109	i	0.86
CC(C)(C)NC(=O)C(c1ccco1)N(Cc1ccc2c(c1)OCO2)C(=O)Cn1nnc2ccccc21 (stereo unspecified)	4	-45	89	-1.2	99	i	0.99
Cc1cccc(OCc2nnc(SCC(=O)N3CCN(C(=O)c4ccco4)CC3)n2C)c1C	-4	-55	47	-0.3	103	i	0.81
Cc1cc(C)n2nc(SCc3cc(=O)oc4cc(O)ccc34)nc2n1	0	-17	77	-1.3	97	i	0.98
O=C(O)CSc1nc2ccc(Cl)cc2[nH]1	-5	-73	104	-0.5	103	i	0.88
CC(Oc1ccc(Br)cc1)C(=O)Nn1c(=S)[nH]c2ncccc2c1=O (stereo unspecified)	-9	·	·	-1.6	117	i	1
COc1ccc(/C=N/NC(=O)CNC(=O)COc2ccccc2)cc1	-6	·	·	-1.3	68	i	0.93
Cc1nnc(SCCN2CCOCC2)n1-c1cccc(Cl)c1	6	·	·	-1.5	97	i	0.92

Reprinted from the part before: seven entries, followed by the next part.
SMILES	PKD1 inh	INS promoter inh	INS promoter inh cell count	GALR2 agonist	RGS16-Gao	HSV augment	HSV augment primary fold
CC(C)(C)NC(=O)C(c1ccco1)N(Cc1ccc2c(c1)OCO2)C(=O)Cn1nnc2ccccc21 (stereo unspecified)	4	-45	89	-1.2	99	i	0.99
Cc1cccc(OCc2nnc(SCC(=O)N3CCN(C(=O)c4ccco4)CC3)n2C)c1C	-4	-55	47	-0.3	103	i	0.81
Cc1cc(C)n2nc(SCc3cc(=O)oc4cc(O)ccc34)nc2n1	0	-17	77	-1.3	97	i	0.98
O=C(O)CSc1nc2ccc(Cl)cc2[nH]1	-5	-73	104	-0.5	103	i	0.88
CC(Oc1ccc(Br)cc1)C(=O)Nn1c(=S)[nH]c2ncccc2c1=O (stereo unspecified)	-9	·	·	-1.6	117	i	1
COc1ccc(/C=N/NC(=O)CNC(=O)COc2ccccc2)cc1	-6	·	·	-1.3	68	i	0.93
Cc1nnc(SCCN2CCOCC2)n1-c1cccc(Cl)c1	6	·	·	-1.5	97	i	0.92
COc1ccc(/C=C/c2ccccc2)cc1[C@H]1[C@H]2C=CC[C@@H](C)[C@@H]2C(=O)N1Cc1ccccc1	·	·	·	·	100	i	1.2
CCn1cnc2cc(NCc3nc4ccccc4n3Cc3ccccc3)ccc21	-11	35	143	0.1	37	i	0.89
O=C(Nc1ccon1)c1ccccc1F	-2	0	159	-0.8	104	i	0.84
O=S(=O)(NC1CCCC1)c1cccc(-c2nnc(-c3ccccc3)o2)c1	2	-6	106	-1.2	96	i	1.1
COc1ccc(NC(=O)C2=C(C)Nc3ncnn3C2c2ccccc2C(F)(F)F)c(OC)c1 (stereo unspecified)	-1	-403	77	-1.2	100	i	0.88
N#Cc1ccc(COC(=O)C2CCC(=O)N2)cc1 (stereo unspecified)	-1	-4	115	-3.3	107	i	0.98
COC(=O)C1(C)NC(c2cccs2)C2C(=O)N(c3ccc(F)cc3)C(=O)C21 (stereo unspecified)	8	-14	102	-0.6	102	i	0.94
COc1cccc(-c2nnc(SCC(=O)NCc3ccc4c(c3)OCO4)n2Cc2ccco2)c1	-2	4	135	-3.1	97	i	0.98
Cc1cccc(C)c1-n1cccc1/C=C1/C(=N)N2C(=NC1=O)SN=C2S(C)(=O)=O	0	29	106	·	99	i	0.98
Cc1ccc2nc(-c3ccncc3)c(Nc3ccccc3)n2c1	-14	3	99	-0.1	95	i	0.98
CN1C(C(=O)NCc2ccccc2)CC2Cn3c(nc4cc(Cl)c(Cl)cc43)C21 (stereo unspecified)	·	·	·	·	91	i	0.82
CN1CCN(c2cc3c(c4c2[nH]c2ccccc24)C(=O)CC(C)(C)C3)CC1	-11	·	·	0.3	95	i	0.68
Cc1cccc(C)c1C(=NCCCN(C)C)c1ccccc1	6	-37	77	-1.6	110	i	0.86
CCSc1nc2ccc(OC)cc2cc1C#N	-7	-26	133	-0.1	49	i	1
NC(=O)Nn1c(CCC(=O)O)ccc1-c1ccc(F)cc1	-2	-36	56	-2.1	105	i	0.9
O=C1OCCC1Sc1nnc(-c2ccccc2Br)n1Cc1ccccc1 (stereo unspecified)	0	21	217	-0.1	102	i	1
CC(=O)/C(N=Nc1cc(C)ccc1O)=C(\C)O	-7	·	·	·	98	·	·
CCCCc1ccc(NC(=O)C(=O)NCCN2CCN(Cc3ccc([N+](=O)[O-])cc3)CC2)cc1	-3	·	·	·	102	i	1.1
CCCCNc1ccc(C(=O)Nc2cccc(C)n2)cc1[N+](=O)[O-]	-3	25	106	-3.9	99	i	1.4
c1ccc(-n2ncc3c(N4CCN(CCOc5cccc6ccccc56)CC4)ncnc32)cc1	3	-4	90	-1.8	103	i	1
COCCn1cnnc1SCC(=O)Nc1ccc(Br)cc1F	6	0	65	·	108	i	1
c1ccc(-c2cc(N3CCCCC3)ncn2)cc1	-17	-288	71	0.1	102	i	1.1
CSc1ccc(CNCC(O)c2ccccc2)cc1 (stereo unspecified)	2	·	·	·	106	i	0.8
O=C(OCc1nnc(-c2ccccc2)o1)C1CC(=O)N(Cc2ccco2)C1 (stereo unspecified)	-2	-17	98	·	62	i	0.97
Cc1ccc(CSCCNS(=O)(=O)c2ccccc2)cc1	-9	·	·	-0.8	121	i	0.97
O=C(O)c1cc(-c2ccco2)nc2cc3ccccc3cc12	·	·	·	·	97	?	·
CC(C)(C)OC(=O)NCCc1nnc(SCc2ccc(Cl)cc2)o1	5	-28	85	-0.8	107	i	0.89
Cc1cc2nc(CS)[nH]c2cc1C	·	·	·	·	94	i	0.99
CS(=O)(=O)N1CCN(c2ccc([N+](=O)[O-])c(NCc3ccccc3)c2)CC1	0	·	·	-0.7	97	·	·
Cc1ccc(NC(=O)CN(C)S(=O)(=O)c2cccc3nsnc23)cc1Cl	1	-388	65	-0.6	104	i	0.87
Cc1cc(C)n2nc3nc4c(cc3c2n1)CCCC4	-1	40	82	0.4	91	i	1
O=C(N/N=C/c1ccccn1)c1cc(-c2ccccc2Cl)n[nH]1	8	38	158	·	100	i	0.91
CC(C)(C)C1(C)OC(=O)C(=Cc2ccc(OCC(=O)Nc3ccccc3)cc2)C(=O)O1 (stereo unspecified)	-2	8	117	-1.3	100	i	0.83
O=C(NCCN1CCOCC1)c1ccc(CS(=O)(=O)c2ccc(Cl)cc2)o1	-15	·	·	-0.1	105	i	1
Cc1nn(CCCC(=O)NCc2ccc(Cl)cc2)c(C)c1[N+](=O)[O-]	-13	-56	88	-2.1	91	i	0.95
CCN(CC)S(=O)(=O)c1ccc(N2CCN(CCO)CC2)nc1	-13	-17	87	0.1	103	i	1
COc1cc2c(cc1NC(=O)Cn1cnc3c1c(=O)n(C)c(=O)n3C)oc1ccccc12	-16	-9	56	-0.6	147	i	0.85
CCOc1ccc(NC(=O)C2CCCCN2S(=O)(=O)c2ccccc2)cc1 (stereo unspecified)	-7	-28	88	-1.3	102	i	0.82
Fc1ccccc1-c1nc(-c2ccccc2)no1	5	-38	140	-0.6	90	i	1.1
Cc1cc2c(ncn2C)c(NS(=O)(=O)c2cc(Cl)ccc2Cl)c1C	-16	-4	68	-0.4	106	i	1
CC(=O)Cc1nsc(Nc2ccc3c(c2)OCCO3)n1	2	·	·	-0.8	113	i	0.86
CCS(=O)(=O)N1CCC(C(=O)NCc2ccccc2OC)CC1	-5	·	·	-0.3	101	i	1
Nc1nc(-c2cccnc2)nn1C(=O)Cc1ccccc1	-3	-26	120	-1.0	106	i	1.2
Cc1ccc(CNC(=O)CSc2nc3ccsc3c(=O)n2NC(=O)c2ccccc2)cc1	1	-5	95	-0.8	100	i	0.89
COc1cc(NC(=O)c2cccs2)c(C(=O)OCC(=O)NCc2ccco2)cc1OC	-6	30	107	-0.8	96	i	1
COc1cccc(C(=O)Nc2nc3c(s2)CN(C)CC3)c1	-14	-31	276	-0.9	105	i	1
O=C(Cn1c(=O)oc2cc(S(=O)(=O)N3CCc4ccccc43)ccc21)N1CCCCC1	4	·	·	-5.1	93	i	0.78
CCC1S/C(=N/N=C/c2ccco2)NC1=O (stereo unspecified)	1	19	99	-1.5	103	i	0.97
O=c1c2ccccc2cnn1Cc1n[nH]c(=S)n1-c1ccc(F)cc1	1	·	·	·	102	i	0.9
COc1cc(C(C(=O)NC2CCCCC2)N(CCN2CCOCC2)C(=O)C2COc3ccccc3O2)cc(OC)c1OC (stereo unspecified)	3	·	·	·	110	i	0.94
Cc1ccc(-c2cn3c(n2)SCC3)cc1	-1	53	86	·	87	i	0.91
Cc1ccc2cc3c(nc2c1)OCC3	·	·	·	·	93	i	0.92
C=CCc1cc(Cl)ccc1OCCOCCNC(C)(C)C	-4	·	·	·	115	i	0.81
Cc1nc(N)ncc1Sc1ccc(Cl)cc1	-7	-7	67	·	99	i	0.96
COc1ccc([N+](=O)[O-])cc1NC(=O)CSCc1ccc(Br)cc1	-11	-20	112	-1.2	108	i	0.99
COC(=O)c1cc(NCc2cccs2)ccc1N1CCOCC1	-11	·	·	-3.3	106	i	0.99
CCOc1ccc(/C(O)=C2/C(=O)C(=O)N(c3ncccn3)C2c2ccc(Cl)cc2)cc1 (stereo unspecified)	·	·	·	·	101	i	1.1
O=S(=O)(Nc1nc2ccccc2[nH]1)c1ccccc1	-6	·	·	0.0	101	i	0.78
Cc1noc(C)c1CN(C(=S)NC1CC1)c1ccccc1	-10	32	72	-1.6	85	i	1
CCOc1ccc(OCC)c(NC(=O)CSc2nc3cccnc3n2C)c1	-11	-29	88	-1.0	95	i	0.94
Cc1cc(NC(=O)CSc2nnc(CNc3ccc(F)cc3)n2C2CCCCC2)no1	5	·	·	0.3	80	i	1
CCOC(=O)c1sc(NC(=S)NC(=O)c2ccccc2Cl)c(C(=O)OCC)c1C	4	·	·	-1.0	101	i	1.1

Assay outcomes as filed in PubChem BioAssay.
